Screening data as filed in PubChem.
GALR2 agonist: GALR2 receptor agonists, primary screen, cell-based | activation, %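 (tested at 5 µM)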 | Galanin receptor type 2 (Homo sapiens), O43603 | AID 803, 2007 | actives 0.48% (n = 140,000) | GALR2-expressing cells, agonist activation read-out;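 active means above mean plus 3 SD of all compounds, about 5% in these data, not always enough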;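 further: 0% = vehicle buffer wells and 100% = reference agonist at full effect; tested in CHO reporter cells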
Insulin prom inh: inhibitors of insulin promoter-driven GFP, primary screen, imaging, TRM-6 cells (human fetal islet line), eGFP reporter, cell count | reporter expression induced with tamoxifen | inhibition, % at 2 µM | actives 0.9% (n = 130,000) | AID 1273, 2008;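 active means inhibition above the mean plus 3 SD, with well images judged a real hit on visual review, cut at about 60% in these data, passing the limit was not always enough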
HSV replic up: enhancers of HSV replication in host cells, fold increase, host cell viability; maximum fold increase; HSV replication augmentation in cells; AID 1956, 2009; actives 0.005% (n = 220,000);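 active means peak rise of 1.5-fold or more in the series; tested in PC3 cells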;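 further: first round at 10 µM; read as green reporter fluorescence; hits show the peak of a series up to 25 µM; 1 = signal of infected wells without compound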
PKD1 inh: inhibitors of human PKD1 kinase, biochemical, fluorescence polarization. PKD1 kinase fluorescence polarization assay. Serine/threonine-protein kinase D1 (Homo sapiens), Q15139. AID 797, 2007. inhibition, %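 (about 10 µM by stock and volumes)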. actives 0.056% (n = 200,000);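 active means inhibition of 50% or more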;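 further: controls were vehicle for no effect and a reference inhibitor for full effect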
Target sequence (Q15139 whole entry, looked up): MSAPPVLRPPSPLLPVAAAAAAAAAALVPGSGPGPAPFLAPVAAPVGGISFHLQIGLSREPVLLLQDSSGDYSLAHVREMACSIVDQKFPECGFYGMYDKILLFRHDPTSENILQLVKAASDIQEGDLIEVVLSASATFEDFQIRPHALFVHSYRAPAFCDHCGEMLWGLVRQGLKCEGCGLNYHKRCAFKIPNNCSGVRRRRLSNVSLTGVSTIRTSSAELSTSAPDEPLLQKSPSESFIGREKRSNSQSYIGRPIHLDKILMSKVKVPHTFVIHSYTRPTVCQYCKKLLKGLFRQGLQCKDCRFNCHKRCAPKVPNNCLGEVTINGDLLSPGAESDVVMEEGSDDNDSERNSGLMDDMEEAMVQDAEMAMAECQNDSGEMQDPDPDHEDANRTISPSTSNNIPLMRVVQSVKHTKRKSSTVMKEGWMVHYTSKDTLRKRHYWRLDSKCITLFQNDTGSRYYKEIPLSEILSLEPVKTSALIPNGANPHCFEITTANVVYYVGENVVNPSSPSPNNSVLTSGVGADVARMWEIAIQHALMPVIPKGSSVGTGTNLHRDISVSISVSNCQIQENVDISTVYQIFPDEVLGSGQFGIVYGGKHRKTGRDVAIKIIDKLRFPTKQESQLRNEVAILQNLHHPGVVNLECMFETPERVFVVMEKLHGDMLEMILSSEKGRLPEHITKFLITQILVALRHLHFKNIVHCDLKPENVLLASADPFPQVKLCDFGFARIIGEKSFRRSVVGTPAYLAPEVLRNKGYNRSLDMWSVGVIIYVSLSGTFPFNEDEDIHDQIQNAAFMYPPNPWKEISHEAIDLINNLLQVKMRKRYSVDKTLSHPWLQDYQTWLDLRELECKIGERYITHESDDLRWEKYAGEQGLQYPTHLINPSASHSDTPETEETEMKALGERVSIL
RGS16-Gao: modulators of RGS16 binding to Galphao, primary screen, biochemical, human proteins, multiplexed bead flow cytometry; Regulator of G-protein signaling 16 (Homo sapiens) + Guanine nucleotide-binding protein …; bead-based flow cytometry RGS16-Galphao binding, fluorescence; actives lie on both sides; binding response (% of control), % at 10 µM; actives 0.38% (n = 220,000);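 active means below 25% or above 175%, edge rows of some plates excepted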;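 further: Galphao activated by GDP with aluminum fluoride before binding; 100% = wells without compound and 0% = beads without RGS; some results beyond the cut were filed as inactive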
Insulin prom inh cell count: also measured in Insulin prom inh; calls as there; normalized cell count, %; measured here: cell count, toxicity; reference of the scale not given here;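 cells exposed to compound for 48 h; stained nuclei by imaging scaled within each plate; lower means fewer cells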
HSV replic up primary fold: further read-out of HSV replic up, marked with its call; fold increase; compound at 10 µM; measured here: primary screen fold increase 10 uM; tested in PC3 cells;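 GFP signal in the first replicate; 1 = infected wells without compound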
The depositor's hits bear a star; i = inactive; . = no result given.

SMILES | GALR2 agonist | Insulin prom inh | Insulin prom inh cell count | HSV replic up | HSV replic up primary fold | PKD1 inh | RGS16-Gao
Cc1ccc(C(=O)OCc2c(C)noc2C)cc1NC(=O)c1ccco1 | . | 4 | 140 | i | 0.99 | -7 | 94
O=C(C1CCCO1)N1CCC(O)(c2ccccc2)CC1 (centres undefined) | -1.0 | . | . | i | 0.89 | -2 | 102
COc1cc(NC(=O)c2ccc3c(SCC(=O)O)c4c(nc3c2)CCCC4)cc(OC)c1OC | . | 50 | 98 | i | 1 | 2 | 96
O=C(Nc1ccc2c(c1)OCO2)c1cc(C2CC2)on1 | -1.7 | . | . | i | 0.92 | -1 | 100
Cc1cccc(NC(=S)NC(=O)/C=C/c2ccco2)c1 | . | . | . | i | 1.1 | 2 | 60
CCN(CC)S(=O)(=O)c1cc(NC(=O)COC(=O)c2sc3ccccc3c2Cl)ccc1C | -0.9 | 15 | 106 | i | 1.1 | -16 | 108
Cc1ccc(CNC(=O)CN(C)S(=O)(=O)c2cccs2)cc1 | . | 15 | 72 | i | 1.1 | -4 | 100
COc1ccccc1NC(=O)CN1C(=O)CCS(=O)(=O)c2ccccc21 | -0.6 | 19 | 37 | i | 1.1 | -7 | 99
COc1cccc(N2CCN(C(=S)NCc3ccco3)CC2)c1 | -2.0 | -14 | 57 | i | 1.1 | -1 | 42
Cc1ccc(-c2cc(C(F)F)nc(NCc3cccnc3)n2)cc1 | 5.0* | 29 | 88 | i | 1 | -6 | 107
COc1ccc(Cl)cc1NC(=O)Cn1cccc1 | -0.6 | . | . | i | 1 | -7 | 102
c1ccc(CSc2ncccn2)cc1 | -3.1 | -13 | 141 | i | 1.1 | 3 | 90
Cc1onc(-c2ccccc2Cl)c1C(=O)O/N=C(\N)c1ccc([N+](=O)[O-])o1 | . | . | . | i | 0.95 | . | 98
Cc1sc2ncnc(N3CCCC(C)C3)c2c1C (centres undefined) | . | . | . | i | 0.87 | -2 | 99
COc1ccc(Br)cc1CN1CCN(C(=O)c2ccc(OC)c(OC)c2)CC1 | . | . | . | i | 0.94 | 4 | 105

Single values from the entries so far.
PKD1 inh, `COc1ccc(Cl)cc1NC(=O)Cn1cccc1` = -7
PKD1 inh, `Cc1sc2ncnc(N3CCCC(C)C3)c2c1C` (centres undefined) = -2

(listing goes on)
SMILES | GALR2 agonist | Insulin prom inh | Insulin prom inh cell count | HSV replic up | HSV replic up primary fold | PKD1 inh | RGS16-Gao
CCc1nc2c(c(=O)c3ccccc3n2C)c(=O)n1-c1ccc(F)cc1 | -1.0 | . | . | i | 0.96 | -8 | 102
Nc1cc(Cl)ccc1Oc1ccccc1 | -0.9 | 45 | 110 | i | 0.88 | -33 | 100
Cc1ccccc1-c1n[nH]c(=S)n1Cc1ccccc1 | . | 0 | 116 | i | 1 | -2 | 100
COC(=O)c1cccc(NC(=O)c2nn(C)c(=O)c3ccccc23)c1 | -0.8 | -64 | 95 | i | 1.1 | -6 | 114
CCc1ccc(NC(=O)c2cccnc2)cc1 | -3.1 | i | 49 | i | 0.7 | -2 | 102
OC1CN=C2Sc3ccccc3N2C1 (centres undefined) | -1.7 | -69 | 119 | i | 1 | -9 | 99
O=S(=O)(/N=C/N1CCOCC1)c1ccc(Cl)cc1 | -0.9 | 45 | 83 | i | 0.99 | 11 | 101
COc1ccc(C(=O)N/C(=C\c2cccc3ccccc23)C(=O)N2CCN(C)CC2)cc1OC | . | . | . | i | 0.92 | 3 | 104
O=C(O)c1cccc(CSc2nc(-c3ccccc3)cc(C(F)(F)F)n2)c1 | -0.6 | 29 | 143 | i | 0.95 | -1 | 114
CC(=O)c1sc(-c2ccccn2)nc1C | . | . | . | i | 1.1 | -1 | 99
CCN1CCN(CC(=O)Nc2cc(C(F)(F)F)ccc2OCCOC)CC1 | . | . | . | i | 0.94 | . | 100
Cc1ccc(S(=O)(=O)N(C)C)cc1NC(=O)c1ccncc1 | . | . | . | i | 0.97 | 1 | 101
CCCCCCNC(=O)N[C@@H](C(=O)NCCC[C@H]1CN2C(=NC[C@@H]2Cc2ccccc2)N1CCc1cccc(OC)c1)C(C)C | . | . | . | i | 0.8 | . | 46
CC(/C=C/c1ccccc1)=N\NC(=O)CCc1ccccc1 | . | . | . | i | 0.91 | -8 | 103
S=c1[nH]nc(-c2ccco2)n1C1CCCCC1 | -0.2 | . | . | i | 1.1 | -1 | 99
O=S(=O)(Cc1ccccc1)Nn1cnnc1 | -1.4 | -104 | 92 | i | 0.89 | -6 | 72
COc1ccc(CNC(=O)C/C(C)=N/NC(=O)c2ccc([N+](=O)[O-])cc2Cl)cc1 | . | -7 | 95 | i | 0.91 | -2 | 89
COC1=C/C(=C/c2c(O)c(C#N)c3ccccn23)C=CC1=O | . | . | . | i | 1.1 | . | 95
O=C(COc1ccc(F)cc1)c1c(O)cc(O)cc1O | . | . | . | i | 0.93 | . | 98
CCCOc1ccc(CSC2=NCCN2)cc1[N+](=O)[O-] | -4.7 | . | . | . | . | 0 | 103
CCOC(=O)CNc1ncc(C(F)(F)F)cc1Cl | . | -33 | 127 | i | 0.99 | -1 | 102
Cc1ccc(C(=O)COC(=O)c2ccc3c(c2)C(=O)N(c2cccc4ncccc24)C3=O)cc1C | 0.2 | . | . | i | 0.87 | 2 | 101
Clc1ccc2[nH]c3c(NCCCN4CCOCC4)ncnc3c2c1 | -2.5 | . | . | i | 0.95 | -2 | 102
O=C(O)Cn1c(P(=O)(O)c2ccccc2)nc2ccccc21 | -1.1 | 29 | 116 | i | 0.91 | -4 | 105
COc1ccc(/C=C2\Cc3ccccc3C2=O)cc1OC | . | . | . | i | 0.91 | . | 104
N#CCC(=O)N/N=C/c1cc([N+](=O)[O-])ccc1N1CCCC1 | . | -57 | 44 | i | 0.86 | -9 | 105
COc1cc(O)c(C(CC(=O)N2CCOCC2)c2ccc3c(c2)OCO3)c(OC)c1 (centres undefined) | . | . | . | i | 0.69 | . | 97
COC(=O)C1=C(N)Oc2cc(C)n(Cc3ccncc3)c(=O)c2C1c1cccnc1 (centres undefined) | -0.7 | 33 | 102 | i | 0.91 | 0 | .
COCCNC(=O)CSCc1nc(-c2ccc(SC)cc2)oc1C | -3.3 | -107 | 99 | i | 0.93 | -2 | 101
C/C(N)=C(/C#N)C(=O)CSc1cc(Cl)ccc1Cl | 0.9 | 23 | 109 | i | 0.97 | -3 | 93
COCCN1C(=O)N[C@@H](c2ccccc2)C(C(=O)OC)=C1C | -1.6 | 35 | 94 | i | 0.94 | 0 | 107
O=C(NNS(=O)(=O)c1ccc(F)cc1)c1cnccn1 | . | . | . | i | 0.97 | -6 | 100
CCNc1c(C(=O)O)ccc2c1C(=O)c1ccccc1C2=O | -0.7 | . | . | i | 0.96 | 7 | 93
O=C(NCCc1ccccc1)C(=O)Nc1ccc([N+](=O)[O-])cc1 | . | . | . | i | 0.91 | -10 | 102
Cc1cccc(N2C(=O)CC(Sc3nc(C)cc(C)n3)C2=O)c1 (centres undefined) | -2.8 | -17 | 93 | i | 0.98 | -9 | 102
CCOC(=O)N1CCC(Nc2c(-c3ccccc3)c(=O)c2=O)CC1 | -1.4 | -86 | 99 | i | 1.3 | 2 | 101
COc1ccc(C(=O)O/N=C(\N)Cc2ccc(Cl)cc2)cc1OC | -0.6 | . | . | i | 0.75 | -9 | 104
C/C(=N\Nc1ccccn1)c1ccc(OC(F)F)cc1 | . | . | . | i | 0.94 | 0 | 108
Cc1ccccc1NC(=O)C1CCCN(S(=O)(=O)c2cnc[nH]2)C1 (centres undefined) | -0.5 | . | . | i | 0.97 | -10 | 96
O=C(COc1ccccc1)Nc1nnc(-c2ccc3c(c2)CCCC3)o1 | -1.1 | . | . | i | 0.86 | 1 | 109
COCCCNCCCCOc1cccc(Br)c1 | -2.9 | 35 | 101 | i | 0.93 | -15 | 108
CCc1nc(SCc2nnc(-c3ccc(C)cc3)o2)c2c(C)c(C)sc2n1 | -2.6 | -322 | 67 | i | 1 | -4 | .
Cc1cc(NC(=O)c2ccc3c(c2)C(=O)N(C2CCCCC2)C3=O)no1 | -2.1 | -7 | 61 | i | 1 | 2 | 103
COc1ccc(NC(=O)/C=C/c2c(Cl)nc3ccccn23)cc1 | . | . | . | i | 0.98 | -5 | 99
COc1ccc(CNC(=O)c2c(C)oc3c2C(=O)c2ccccc2C3=O)cc1 | -0.3 | -46 | 111 | i | 0.51 | -4 | 106
CC(C)(C)[C@H]1C=C(C(N)=O)O[C@@H](OCCCCO)C1 | . | . | . | i | 1 | . | 97
CCOC(=O)c1c(CN2CCN(CCO)CC2)n(-c2ccccc2)c2cc(Br)c(O)cc12 | . | . | . | i | 0.82 | . | 105
CN(C(=O)CN(c1ccccc1)S(=O)(=O)c1ccc(F)cc1)C1CCS(=O)(=O)C1 (centres undefined) | . | . | . | i | 1.1 | . | 103
O=C(O)COCC(=O)NC1CCN(Cc2ccccc2)CC1 | . | . | . | i | 0.99 | . | 101
CCOC(=O)c1ccc2c(c1)nc(SCc1cn3ccsc3n1)n2CC | 1.6 | -76 | 96 | i | 0.73 | -6 | 104
COc1ccc(N2C(=O)CNC2=S)cc1 | 1.6 | -107 | 49 | i | 1.1 | 1 | 105
Cc1cc(NS(=O)(=O)c2ccc(NC(=S)NC(=O)c3ccc(F)cc3)cc2)no1 | -0.1 | -21 | 84 | i | 0.96 | -9 | 102
O=P(O)(O)CCP(=O)(c1ccccc1)c1ccccc1 | -0.3 | -33 | 121 | i | 0.88 | -1 | 106
CS(=O)(=O)N(Cc1ccc(C(=O)NC2CCCC2)cc1)c1ccccc1 | . | . | . | i | 1 | 0 | 59
Cc1ccc(C)c(N(C(=O)CS(=O)CC(=O)Nc2ccc3c(c2)OCO3)C(C)C(=O)NC2CCCC2)c1 (centres undefined) | -3.5 | 52 | 30 | i | 0.79 | -3 | 98
CCC(=O)NCC(c1ccco1)N1CCN(c2ccc(OC)cc2)CC1 (centres undefined) | . | 11 | 104 | i | 0.95 | -4 | 101
COc1ccc(OC)c(-c2cc(C(=O)Nc3c(C)nn(Cc4ccccc4C)c3C)no2)c1 | 1.7 | 5 | 113 | i | 0.88 | -13 | 104
O=C1c2ccccc2C(O)(Cc2ccccc2)N1Cc1ccco1 (centres undefined) | -1.9 | 25 | 58 | i | 0.97 | 2 | 101
CCOC(=O)C(C)Sc1nc(-c2ccccc2)nc2ccccc12 (centres undefined) | . | -27 | 129 | i | 0.93 | 0 | 112
COc1ccc(C(=O)Nc2cc(=O)[nH]c3ncnn23)cc1 | . | . | . | i | 0.97 | . | 98
(list continues)
SMILES | GALR2 agonist | Insulin prom inh | Insulin prom inh cell count | HSV replic up | HSV replic up primary fold | PKD1 inh | RGS16-Gao
CCOC(=O)c1c2ccc(OCC(=O)N/N=C/c3ccccc3C(F)(F)F)cc2n2ccccc12 | -0.1 | 0 | 98 | i | 0.97 | 0 | 103
CC(OC(=O)c1cccnc1Cl)C(=O)Nc1ccc2c(c1)OCCO2 (centres undefined) | . | 9 | 156 | i | 0.87 | -3 | 110
COc1ccc(/C(C)=N/N=C(\C)c2ccc(OC)cc2OC)c(OC)c1 | -1.0 | 24 | 102 | i | 0.99 | -4 | 95
COc1ccc(CNC(=O)Cn2c(=O)oc3ccccc32)cc1OC | -1.7 | 47 | 127 | i | 0.95 | -3 | 101
CCOC(=O)c1ccc(NC(=O)CN2C(=O)C(CC)SC(CC)C2=O)cc1 (centres undefined) | -0.9 | . | . | i | 1.2 | -9 | 94
O=C(O)c1ccccc1C(=O)NCCc1ccc(Cl)cc1 | . | . | . | i | 0.97 | -8 | 102
COc1cc([N+](=O)[O-])ccc1NC(=O)C[n+]1ccccc1 | -0.4 | -7 | 73 | i | 0.95 | -8 | 81
COc1ccc(CCC(=O)OCC(=O)c2cccc(OC)c2)cc1 | . | . | . | i | 0.92 | 4 | 103

Looked up by compound from above, 5 records:
SMILES | GALR2 agonist | Insulin prom inh | Insulin prom inh cell count | HSV replic up | HSV replic up primary fold | PKD1 inh | RGS16-Gao
CCOC(=O)c1ccc(NC(=O)CN2C(=O)C(CC)SC(CC)C2=O)cc1 (centres undefined) | -0.9 | . | . | i | 1.2 | -9 | 94
COc1ccc(CCC(=O)OCC(=O)c2cccc(OC)c2)cc1 | . | . | . | i | 0.92 | 4 | 103
COc1ccc(/C(C)=N/N=C(\C)c2ccc(OC)cc2OC)c(OC)c1 | -1.0 | 24 | 102 | i | 0.99 | -4 | 95
COc1cc([N+](=O)[O-])ccc1NC(=O)C[n+]1ccccc1 | -0.4 | -7 | 73 | i | 0.95 | -8 | 81
CCOC(=O)c1c2ccc(OCC(=O)N/N=C/c3ccccc3C(F)(F)F)cc2n2ccccc12 | -0.1 | 0 | 98 | i | 0.97 | 0 | 103
